PABP FP inh = blocks human PABP binding to poly(A) RNA | P11940 | fluorescence polarization | inhibition, % at 35 µM | hit rate 1% among 290,000;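 active = 50% or more with normal probe brightness, or confirmed in later tests; inconclusive = above 50% with abnormal brightness, or retests that disagree; inactive = below 50% or failed in later tests; about a fifth of its hits are not listed in these tables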;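 note: calls also rest on retests at 20 µM and on dose response follow-up; controls were probe without protein and protein plus probe with vehicle; some compounds called inactive have numbers as strong as hits; many hits fall short of the cut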
Target sequence (P11940 whole entry, looked up): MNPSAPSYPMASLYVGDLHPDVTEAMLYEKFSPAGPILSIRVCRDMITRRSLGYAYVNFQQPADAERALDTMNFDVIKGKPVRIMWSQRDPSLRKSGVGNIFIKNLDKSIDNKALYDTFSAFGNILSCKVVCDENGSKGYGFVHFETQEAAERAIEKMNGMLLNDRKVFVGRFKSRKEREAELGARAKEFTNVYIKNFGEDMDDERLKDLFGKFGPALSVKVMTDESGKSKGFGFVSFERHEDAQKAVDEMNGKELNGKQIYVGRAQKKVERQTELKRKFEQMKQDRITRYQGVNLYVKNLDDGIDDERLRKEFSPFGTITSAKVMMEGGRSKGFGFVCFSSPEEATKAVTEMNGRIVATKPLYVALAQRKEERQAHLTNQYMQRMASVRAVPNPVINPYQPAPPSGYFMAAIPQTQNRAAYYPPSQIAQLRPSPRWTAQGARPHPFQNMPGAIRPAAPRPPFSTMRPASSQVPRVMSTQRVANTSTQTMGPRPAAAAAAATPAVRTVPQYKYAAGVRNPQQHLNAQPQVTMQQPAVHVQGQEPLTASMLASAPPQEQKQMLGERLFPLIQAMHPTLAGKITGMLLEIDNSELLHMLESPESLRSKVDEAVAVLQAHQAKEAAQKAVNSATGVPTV
Rce1 inh = yeast Ras-converting enzyme inhibition; Q03530; yeast membranes, quenched prenylated peptide cleavage fluorescence; calls only; hit rate 0.27% among 290,000; AID 2563;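 active = fall in fluorescence gain of 50% or more versus controls, with final raw signal at or below 3038400; inconclusive = same 50% fall but final raw signal above 3038400; inactive = fall in fluorescence gain under 50%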;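 note: plate controls were neutral control wells for no effect and wells lacking membranes for full effect; tested at 10 µM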
CSC inhib = blocks cancer stem cells. cancer stem cell-like cells viability, luminescence. inhibition, % at 7.5 µM. hit rate 1.1% among 300,000. AID 2717;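 active = mean at 75% or more and at least half the replicates too; inconclusive = mean and replicates disagree; tested in HMLE shEcad cells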;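 note: 0% = median of negative and 100% = median of positive control wells; the first replicate is given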
eIF4H inh = inhibitors of RNA binding by human eIF4H; inhibition, % at 35 µM; Q15056; AID 2012; hit rate 0.94% among 290,000; eIF4H fluorescence polarization binding assay;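 active = 50% or more with normal probe brightness, or confirmed in later tests; inconclusive = above 50% with abnormal brightness, or retests that disagree; inactive = below 50% or failed in later tests; about a fifth of its hits are not listed in these tables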;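 note: calls also rest on retests at 20 µM and on dose response follow-up; 0% = protein and probe with vehicle and 100% = probe without protein; strong numbers were not always called active; many hits fall short of the cut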
The depositor's hits bear a star; i = inactive; ? = inconclusive; . = not tested or not shown. The list is partial; the hit share may differ from the screen's.

SMILES | PABP FP inh | Rce1 inh | CSC inhib | eIF4H inh
Cc1nc(-c2ccccc2)sc1C1(C)CC(c2cccnc2)=NO1 (configuration not stated) | . | i | . | .
CCNC(=O)[C@@H]1CCCN1C(=O)[C@H](CCCN=C(N)N)NC(=O)[C@H](CC(C)C)NC(=O)[C@@H](CC(C)C)NC(=O)[C@H](Cc1ccc(O)cc1)NC(=O)[C@H](CO)NC(=O)[C@H](Cc1c[nH]c2ccccc12)NC(=O)[C@H](Cc1cnc[nH]1)NC(=O)[C@@H]1CCC(=O)N1 | . | i | . | .
CC(=O)OC[C@]12CC[C@H]3[C@@](C)(CC[C@H]4C(C)(C)CCC[C@]34C)[C@@H]1C[C@H](C1=CC(=O)O[C@@H]1OC(C)=O)O2 | . | . | 132* | .
CC(C)[C@]1(c2ccc(Cl)cc2)ON(c2ccccc2C(F)(F)F)C1=O | . | . | 58 | .
C#CCOCCOCCOCCNc1nc(N2CCN(C(=O)CCCCCCCCCCNC(=O)[C@H]([C@@H](C)CC)n3cc(CCCCN=C(N)N)nn3)CC2)nc(N2CCN(C(=O)CCCCCCCCCCNC(=O)[C@H](CCCCN)n3cc(C)nn3)CC2)n1 | . | . | 22 | .
C#CCOCCOCCOCCNc1nc(N2CCN(C(=O)CCCCCCCCCCNC(=O)[C@H]([C@@H](C)CC)n3cc(CCCCN=C(N)N)nn3)CC2)nc(N2CCN(C(=O)CCCCCCCCCCNC(=O)[C@H](CCCCN)n3cc(C[C@@H](C)CC)nn3)CC2)n1 | . | . | 102* | .
COC(=O)CN1C(=O)[C@H]2[C@@H](/C=C/c3ccccc3)N3C(=O)CN(Cc4ccccn4)C(=O)[C@@]3(Cc3ccccc3)[C@H]2C1=O | . | . | -6 | .
O=C1OC2(c3ccccc31)c1cc(I)c(O)c(I)c1Oc1c2cc(I)c(O)c1I | . | . | 25 | .
C#CCOCCOCCOCCNc1nc(N2CCN(C(=O)CCCCCCCCCCNC(=O)[C@H](CCCN=C(N)N)n3cc(C[C@@H](C)CC)nn3)CC2)nc(N2CCN(C(=O)CCCCCCCCCCNC(=O)[C@@H]([C@H](C)CC)n3cc(CCCCCN)nn3)CC2)n1 | . | . | 168* | .
C#CCOCCOCCOCCNc1nc(N2CCN(C(=O)CCCCCCCCCCNC(=O)[C@H]([C@@H](C)CC)n3cc(CCCCN=C(N)N)nn3)CC2)nc(N2CCN(C(=O)CCCCCCCCCCNC(=O)[C@H](CCCN=C(N)N)n3cc(C[C@@H](C)CC)nn3)CC2)n1 | . | . | 88* | .
CC[C@H]1CC2CN3CCc4c([nH]c5c([C@H]6C[C@H]7[C@H](CC)CN(C)[C@@H](Cc8c6[nH]c6ccccc86)[C@H]7C(=O)OC)c(OC)ccc45)C(C(=O)OC)(C2)C13 | . | . | 103* | .
O=C(O)C1=CC(=C(c2ccc(O)c(C(=O)O)c2)c2ccc(O)c(C(=O)O)c2)C=CC1=O | . | . | -14 | .
C=C(NC(=O)C(=C)NC(=O)c1csc(C2=NC3c4csc(n4)C4NC(=O)c5csc(n5)C([C@@](C)(O)C(C)O)NC(=O)C5CSC(=N5)/C(=C\C)NC(=O)C(C(C)O)NC(=O)c5csc(n5)[C@]3(CC2)NC(=O)C(C)NC(=O)C(=C)NC(=O)C(C)NC(=O)C(C(C)CC)NC2C=Cc3c(C(C)O)cc(nc3C2O)C(=O)OC4C)n1)C(N)=O (some centres not stated) | . | . | 80* | .
C#CCOCCOCCOCCNc1nc(N2CCN(C(=O)CCCCCCCCCCNC(=O)[C@@H](CCSC)n3cc(CCO)nn3)CC2)nc(N2CCN(C(=O)CCCCCCCCCCNC(=O)[C@H]([C@@H](C)CC)n3cc(CCCCCN)nn3)CC2)n1 | . | . | -5 | .
CS(=O)(=O)NCc1ccccc1Br | . | . | -16 | .

An excerpt of these results, tab-delimited.
mol	PABP FP inh	Rce1 inh	CSC inhib	eIF4H inh
C#CCOCCOCCOCCNc1nc(N2CCN(C(=O)CCCCCCCCCCNC(=O)[C@H]([C@@H](C)CC)n3cc(CCCCN=C(N)N)nn3)CC2)nc(N2CCN(C(=O)CCCCCCCCCCNC(=O)[C@H](CCCCN)n3cc(C)nn3)CC2)n1	.	.	22	.
O=C1OC2(c3ccccc31)c1cc(I)c(O)c(I)c1Oc1c2cc(I)c(O)c1I	.	.	25	.

The list goes on:
SMILES | PABP FP inh | Rce1 inh | CSC inhib | eIF4H inh
CC(C)(C)OC(=O)CNC(=O)c1[nH]cnc1C(=O)N[C@@H](CCCCN)C(=O)OC(C)(C)C | . | . | -5 | .
CN(C)C(=O)c1cccc(-c2csc(N3CCC(C(N)=O)CC3)n2)c1 | . | . | -28 | .
CCCCOC(=O)NS(=O)(=O)c1sc(CC(C)C)cc1-c1ccc(Cn2c(CC)nc3c(C)cc(C)nc32)cc1 | . | . | 100* | .
COC(=O)[C@@]12OC[C@]34[C@H]([C@@H](O)[C@@H]1O)[C@@]1(C)C(=O)C(O[C@@H]5OC(CO)[C@@H](O)[C@@H](O)[C@@H]5O)=C[C@@H](C)[C@@H]1C[C@H]3OC(=O)[C@H](OC(=O)/C=C(\C)C(C)(C)OC(C)=O)[C@@H]24 (some centres not stated) | . | . | 1 | .
C=C(C(=O)Oc1ccccc1C(C)(C)C)c1ccccc1 | . | . | 103* | .
CC(C)CN1CCN(C2CCN(C(C)C)CC2)C(CCO)C1 (configuration not stated) | 4 | . | . | 1
Cc1nc(NC2=NCN(Cc3ccc4c(c3)OCO4)CN2)nc2ccccc12 | -11 | . | . | 2
COc1cc(OC)c(-c2nn3c(-c4cccnc4)nnc3s2)cc1OC | 8 | . | . | 8
C/C(=C\C(=O)c1ccc(C)cc1)Nc1ccc(N2CCOCC2)cc1 | -4 | . | . | 3
Cc1nc2ccc(NC(=O)Cn3cnc4c3c(=O)n(C)c(=O)n4C)cc2s1 | 0 | . | . | 7
Cc1cc(NC(=O)c2cc3nc4c(c(C(F)(F)F)n3n2)CCc2ccccc2-4)no1 | 0 | . | . | -1
NCCCCC(NC(=O)C1CCCN1C(=O)C1CSSCC(N)C(=O)NC(Cc2ccc(O)cc2)C(=O)NC(Cc2ccccc2)C(=O)NC(CCC(N)=O)C(=O)NC(CC(N)=O)C(=O)N1)C(=O)NCC(N)=O (configuration not stated) | 3 | . | . | 2
Cc1ccc(S(=O)(=O)NCCn2c(C)cc3ccccc32)cc1 | ? | . | . | ?
COc1ccc(C2c3c(oc4ccc(C)cc4c3=O)C(=O)N2c2cc(C)ccn2)cc1OC (configuration not stated) | -7 | . | . | -1
COc1ccc(S(=O)(=O)Nc2cc(Sc3ncn[nH]3)c(O)c3ccccc23)cc1 | 13 | . | . | -5

Sorted by length of the SMILES (highest first): some entries from above
SMILES | PABP FP inh | Rce1 inh | CSC inhib | eIF4H inh
COc1ccc(S(=O)(=O)Nc2cc(Sc3ncn[nH]3)c(O)c3ccccc23)cc1 | 13 | . | . | -5
Cc1nc2ccc(NC(=O)Cn3cnc4c3c(=O)n(C)c(=O)n4C)cc2s1 | 0 | . | . | 7
C/C(=C\C(=O)c1ccc(C)cc1)Nc1ccc(N2CCOCC2)cc1 | -4 | . | . | 3
COc1cc(OC)c(-c2nn3c(-c4cccnc4)nnc3s2)cc1OC | 8 | . | . | 8
Cc1ccc(S(=O)(=O)NCCn2c(C)cc3ccccc32)cc1 | ? | . | . | ?
CC(C)CN1CCN(C2CCN(C(C)C)CC2)C(CCO)C1 (configuration not stated) | 4 | . | . | 1

Remaining list, next part:
SMILES | PABP FP inh | Rce1 inh | CSC inhib | eIF4H inh
COCCN(Cc1cc2cc3c(cc2[nH]c1=O)OCO3)C(=O)c1cccs1 | -1 | . | . | 8
O=C(c1cc(-c2ccc(Cl)c(Cl)c2)on1)N1CCCC1 | -12 | . | . | -2
Cc1cc(C)n2c(Nc3ccc4c(c3)OCCO4)c(-c3ccco3)nc2n1 | 8 | . | . | -3
CCOC(=O)C1CCN(c2nc3ccccc3nc2C(C#N)C(=O)NCCc2ccccc2)CC1 (configuration not stated) | 1 | . | . | 23
C[n+]1nc(Nc2cccc(F)c2)sc1-c1ccc(C(=O)O)cc1 | -2 | . | . | 3
COc1ccc2c(=O)c3c(=O)n(Cc4ccco4)c(C4CCCCC4)nc3oc2c1 | 0 | . | . | -18
O=c1[nH]c(CN2CCN(Cc3ccc4c(c3)OCO4)CC2)nc2sc3c(c12)CCC3 | 13 | . | . | -5
Cc1ccc2nc(NC3=NCN(Cc4ccccc4)CN3)nc(C)c2c1 | -5 | . | . | -9
O=C1C(=O)N(CCCn2ccnc2)C(c2ccccn2)/C1=C(/O)c1ccccc1 (configuration not stated) | 0 | . | . | -1
CC1CNc2c(cccc2S(=O)(=O)N[C@@H](CCCN=C(N)N)C(=O)N2CC[C@@H](C)C[C@@H]2C(=O)O)C1 (some centres not stated) | -2 | . | . | -2
Cn1nnnc1SCC(=O)Nc1ccc(Cl)cc1Cl | -2 | . | . | 11
CCOC(=O)c1c(NC(=O)c2ccc(N3CCOCC3)c([N+](=O)[O-])c2)sc(C)c1C | -7 | . | . | 1
CCN(CC)c1ccc(/C=C(\C#N)c2nc(-c3cccs3)c(NC(C)=O)s2)cc1 | -1 | . | . | ?
CCCOc1cccc(C2/C(=C(/O)c3ccncc3)C(=O)C(=O)N2CCCN(C)C)c1 (configuration not stated) | -8 | . | . | 6
Cc1cc(C)cc(Oc2ccccc2CO)c1 | -18 | . | . | -13
CCCn1c(=O)c2ccccc2n2c(SCC(=O)c3ccc(F)cc3)nnc12 | 9 | . | . | 3
COc1nc2cc(C)ccc2cc1-c1noc(-c2cccnc2)n1 | -1 | . | . | 5
COc1ccc(/C=C/C(=O)c2sc(-c3ccc(Cl)cc3)nc2C)cc1 | -3 | . | . | -1
CCC(=O)Nc1nc(C)c(-c2csc(Nc3ccc(S(=O)(=O)Nc4cc(C)on4)cc3)n2)s1 | 7 | . | . | 6
CCCCCn1c2nc3ccccc3nc2c2c(=O)n(CC3CCCO3)c(C)nc21 (configuration not stated) | -4 | . | . | -4
Cn1c(=O)c2c(-c3cccc(F)c3)c3c(nc2n(C)c1=O)-c1ccccc1C3O (configuration not stated) | -1 | . | . | 0
Cc1ccccc1-c1nnc2s/c(=C\c3ccc(N(C)C)cc3)c(=O)n12 | 91* | . | . | 82*
CCn1c(=N)c(C(=O)NCc2cccnc2)cc2c(=O)n3cccc(C)c3nc21 | 13 | . | . | -1
Cn1c(C(=O)N2CCN(C3CCCCC3)CC2)cc2c(=O)n(C)c3ccccc3c21 | 2 | . | . | -9
COc1cc(C2c3c(oc4ccccc4c3=O)C(=O)N2Cc2cccnc2)cc(OC)c1OC (configuration not stated) | -6 | . | . | 1
CCOC(=O)NC1(Nc2ccc(Cl)cn2)Oc2ccccc2O1 | 7 | . | . | 6
CCNC(=O)CSc1nc2cc(OC)c(OC)cc2c(=O)n1CCC1=CCCCC1 | -12 | . | . | -7
O=C(O)CCC(NC(=O)C(Cc1ccc2c(c1)OCO2)NC(=O)c1ccccc1)C(=O)O (configuration not stated) | 9 | . | . | 2
COc1cc(OC)c(-c2nn3c(-c4ccncc4)nnc3s2)cc1OC | 0 | . | . | -2
CCOC(=O)c1cnn(-c2cc(C)nc3c(-c4ccc(Cl)cc4)c(C)nn23)c1N | 5 | . | . | -6

Among those listed so far, these contain fluorine.
SMILES | PABP FP inh | Rce1 inh | CSC inhib | eIF4H inh
CC(C)[C@]1(c2ccc(Cl)cc2)ON(c2ccccc2C(F)(F)F)C1=O | . | . | 58 | .
Cc1cc(NC(=O)c2cc3nc4c(c(C(F)(F)F)n3n2)CCc2ccccc2-4)no1 | 0 | . | . | -1
C[n+]1nc(Nc2cccc(F)c2)sc1-c1ccc(C(=O)O)cc1 | -2 | . | . | 3
CCCn1c(=O)c2ccccc2n2c(SCC(=O)c3ccc(F)cc3)nnc12 | 9 | . | . | 3
Cn1c(=O)c2c(-c3cccc(F)c3)c3c(nc2n(C)c1=O)-c1ccccc1C3O (configuration not stated) | -1 | . | . | 0

Next entries:
SMILES | PABP FP inh | Rce1 inh | CSC inhib | eIF4H inh
CCc1c(C)nc2ncnn2c1N1CCC(C(=O)N2CCN(c3ccccc3)CC2)CC1 | 0 | . | . | -4
O=c1c2c3nc4ccccc4nc3n(-c3ccc4c(c3)OCCO4)c2ncn1CC1CCCO1 (configuration not stated) | 2 | . | . | 17
Cc1onc(-c2ccccc2)c1C(=O)N[C@@H]1C(=O)N2[C@@H]1SC(C)(C)[C@@H]2C(=O)O | -2 | . | . | -10
CC(NC(=O)Cn1nnc(-c2ccncc2)n1)c1ccccc1 (configuration not stated) | -1 | . | . | -3
Cc1ccc2c(Cl)cc(Cl)c(OCC(=O)NCc3ccco3)c2n1 | 62* | . | . | 98*
O=c1c(O[C@@H]2O[C@H](CO)[C@H](O)[C@H](O)[C@H]2O)c(-c2ccc(O)c(O)c2)oc2cc(O)cc(O)c12 | 4 | . | . | -4
COc1ccc(C(=O)Cn2c(N3CCOCC3)nc3ccccc32)cc1OC | -8 | . | . | 4

Assay outcomes: PubChem, several laboratories
